Screens (PubChem)
MLL AF4-AF9 inh – blocks AF4 peptide binding to human AF9. P42568. AlphaScreen, biotin-AF4 peptide binding to FLAG-AF9. inhibition, % at 10 µM. 350,000 tested, 0.47% active;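 active = every replicate reaching a set inhibition limit, whatever the replicate mean, cut at about 25% in these data; inconclusive = mean inhibition reaches that limit but some replicates miss it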;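 note: 0% = plate neutral control median and 100% = total signal loss; the record names both 10 and 1 µM as test concentration; the first replicate is given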
Target sequence (P42568 whole entry, looked up): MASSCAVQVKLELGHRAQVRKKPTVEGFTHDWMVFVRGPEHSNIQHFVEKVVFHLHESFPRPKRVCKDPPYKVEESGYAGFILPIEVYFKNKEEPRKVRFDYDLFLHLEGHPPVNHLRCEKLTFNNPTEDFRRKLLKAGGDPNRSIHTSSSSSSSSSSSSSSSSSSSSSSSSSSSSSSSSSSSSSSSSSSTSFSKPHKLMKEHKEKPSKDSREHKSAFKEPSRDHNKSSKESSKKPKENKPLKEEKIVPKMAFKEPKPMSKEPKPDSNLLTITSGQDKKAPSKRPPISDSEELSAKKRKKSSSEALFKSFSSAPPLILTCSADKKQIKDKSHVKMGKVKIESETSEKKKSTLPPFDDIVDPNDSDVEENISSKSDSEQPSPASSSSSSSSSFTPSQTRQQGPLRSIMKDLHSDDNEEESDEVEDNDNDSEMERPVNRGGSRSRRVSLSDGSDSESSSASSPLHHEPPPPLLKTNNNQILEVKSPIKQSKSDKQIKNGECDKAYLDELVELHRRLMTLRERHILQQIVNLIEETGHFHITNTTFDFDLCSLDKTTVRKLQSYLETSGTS
Beta cell apopt – blocks beta cell apoptosis | protection from apoptosis, % (concentration not given with the values) | AID 435005 | INS-1E cytokine-induced death, ATP luminescence, 48 h; percent of positive-control rescue, neutral wells zero | 300,000 tested, 0.8% active;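 active = all replicates at 75% or more, or half of them and the mean; inconclusive = half reach 75% but not the mean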;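 note: 0% = cytokine-treated negative control wells and 100% = positive control rescue; higher means more ATP so stronger rescue from cytokine killing; wells of about 40 µL received 100 nL stock; the first replicate is given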
rRNA inh HTS – selective bacterial rRNA inhibition in E. coli. E. coli WT GFP vs humanized-ribosome RFP mutants, fluorescence, 24 h; stronger effect = lower value; DMSO median 0, no signal -100. GFP signal change (wild-type ribosome), % (concentration not given with the values). 350,000 tested, 1.6% active. AID 720706;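 active = significant combined selectivity score with lowered wild-type GFP, culture density cut under 30%, mutant RFP and density less affected; inactive = any of these conditions unmet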; note: one replicate is shown; some compounds called inactive have numbers as strong as hits
T cruzi inh – T. cruzi replication inhibition | T. cruzi beta-gal in NIH3T3, luminescence, 90 h | inhibition, % (concentration not given with the values) | 300,000 tested, 1.4% active | AID 1885;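 active = mean inhibition across valid replicates above about 55%, limit read from the data; inconclusive = mean below that limit but half or more replicates reach it; inactive = mean below it, under half of replicates reach it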;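 note: signal also drops with host cell toxicity which is not excluded here; 0% = plate median of DMSO wells and 100% = zero luminescence signal; higher percent means less beta-gal luminescence so fewer parasites; stock transfer was 50 nL into about 50 µL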
A1 inh – inhibitors of the anti-apoptotic protein A1, read as caspase activation. caspase activation, % (no concentration beside the values). MEF A1-2A-BIM cells, Caspase-Glo 3/7 luminescence, 3 h; percent of clofoctol response, vehicle zero. 330,000 tested, 0.066% active;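 active = over half of replicate activation scores above 10%, or exactly half above 10 with the replicate mean above 10; inconclusive = replicate mean below 10 yet half the replicates above 10; inactive = over half of replicates below 10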;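 note: wells of about 30 µL received 50 nL stock; many hits fall short of the cut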
E coli growth – inhibitors of Escherichia coli growth; OD600, 23 h; stronger effect = lower value; OD600 absorbance (concentration not given with the values); 330,000 tested, 0.21% active; AID 1053175;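 active = OD600 absorbance below the run mean of sample wells minus 3.6 SD, in any replicate, cut at about 0.56 in these data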;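 note: stock transfer was 300 nL into about 60 µL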
UCH37 inh – blocks the human deubiquitinase UCH37; inhibition, % (no concentration beside the values); 330,000 tested, 0.33% active; AID 588478; purified proteasome/UCH37, Ub-AMC cleavage fluorescence;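 active = mean of two replicates above 20%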;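 note: 0% = compound-free wells with enzyme and 100% = wells lacking proteasome; stock transfer was 100 nL into about 20 µL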
Target sequence (Q9Y5K5 whole entry, looked up): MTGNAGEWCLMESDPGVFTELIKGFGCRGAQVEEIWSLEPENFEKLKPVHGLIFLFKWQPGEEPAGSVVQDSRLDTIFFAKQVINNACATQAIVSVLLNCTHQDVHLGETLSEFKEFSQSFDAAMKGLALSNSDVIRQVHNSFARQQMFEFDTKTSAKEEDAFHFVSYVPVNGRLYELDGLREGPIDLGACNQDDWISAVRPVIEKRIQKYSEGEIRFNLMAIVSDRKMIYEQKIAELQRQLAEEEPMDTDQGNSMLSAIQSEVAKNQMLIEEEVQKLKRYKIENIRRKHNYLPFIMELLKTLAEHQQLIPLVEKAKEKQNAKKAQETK
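Assay system: Proteasome-bound UCH37. Buffer or medium: pH 7.4 Tris-HCl (50 mM) with ovalbumin, ATP-MgCl2, DTT. Incubation: 30 min preincubation with enzyme, 25 min cleavage at room temperature. Measured by: fluorescence, ex 355 nm, em 460 nm. Read-out basis: percent inhibition. Control set: wells without proteasome as full block, compound-free enzyme plus substrate as uninhibited.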
FGF22 binding – shifts melting point of recombinant human FGF22. Q9HCT0. recombinant FGF22 thermal shift, SYPRO orange fluorescence; percent of sucrose octasulfate shift, DMSO zero. calls only at 9.99 µM. 340,000 tested, 1.5% active;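 active = melting point raised past a set limit in the mean and every replicate; inconclusive = no clear call; three in four hits are not shown here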
rRNA inh HTS OD600 – second read-out of rRNA inh HTS, no call of its own (marks repeat the call); OD600 change, %; measured here: OD600 growth;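 optical density of the mix in the first replicate; 0 = DMSO median and -100 = no signal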
rRNA inh HTS RFP – also measured in rRNA inh HTS; calls as there; RFP signal change, %; measured here: RFP humanized mutant strains;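 first replicate; 0 = DMSO median and -100 = no signal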
Starred values were filed as active, the others as inactive; i = inactive; ? = inconclusive; / = no result given; & = joins results of further samples. An excerpt; rates above refer to the full screens.

SMILES	MLL AF4-AF9 inh	Beta cell apopt	rRNA inh HTS	rRNA inh HTS OD600	rRNA inh HTS RFP	T cruzi inh	A1 inh	E coli growth	UCH37 inh	FGF22 binding
O=C(NC1CCCCC1)Oc1cc2oc(=O)sc2cc1Cl	-44	3	-14	5	21	-34	1.1	0.66	5.9	i
Cc1c2ccncc2c(C)c2c1[nH]c1ccccc12	5.4	119*	/	/	/	52	0.1	0.42*	-5.9	/
CCC(=NCc1ccc2c(c1)OCO2)c1c(O)n(C2CCCCC2)c(=O)[nH]c1=O	/	17	/	/	/	36	-0.7	0.68	5.1	/
COc1ccccc1C1CC2CCC(C1OC(C)=O)N2Cc1ccccc1 (stereo unspecified)	5.3	/	0	1	-0.7	14	-0.6	0.69	0.5	i
O=C(NC(c1ccc(Cl)cc1)P(=O)(Oc1ccccc1)Oc1ccccc1)OCc1ccccc1 (stereo unspecified)	/	9	/	/	/	12	-0.1	0.74	3.2	/
COc1ccccc1OCC#CCN1CCCC(C)C1 (stereo unspecified)	1.5	/	12	11	-9.0	-11	0.8	0.62	0.3	i
CC12CCC3C(CC=C4CC(O)CCC43C)C1C/C(=C\c1ccccc1F)C2=O (stereo unspecified)	4.9	-2	-3	2	3.4	3	0.0	0.73	1.2	i
COC(=O)C1=C(c2ccc(OC)c(OC)c2)C[C@@H]2CC[C@H]1N2C(=O)NC1CCCCC1	5.6	-3	-2	-1	6.0	/	-0.2	/	5.5	i
C[C@]12CC[C@H](O)C[C@H]1CC[C@@H]1C2CC[C@]2(C)[C@@H](C3=CC(=O)OC3)[C@@H](O)C[C@]12O (stereo partly specified)	-49	-7	-3	0	-10	/	-0.7	/	-0.7	i
COc1cccc([C@@]2(O)CCCC[C@@H]2CN(C)C)c1	-1.4	-20&-5	8	1	1.4	-11&6	0.2&1.2	0.64	2.5&0.1	i
O=Cc1cn(CCCOc2ccccc2)c2ccccc12	-6.5	-9	-49*	-15*	-9.0*	-7	0.2	0.65	1.9	i
O=c1cccc2n1CC1CC2CN(Cc2cccc(Cl)c2Cl)C1 (stereo unspecified)	/	4	/	/	/	28	-0.5	0.67	1.3	/
CN1CCN(c2ccc(S(C)(=O)=O)cc2[N+](=O)[O-])CC1	2.2	-3	3	17	-1.2	6	0.6	0.66	4.1	i
CN(C(=O)COC(=O)c1cn(C)c2ccccc12)C1CCCCC1	4.9	1	-5	-7	0.3	/	0.9	0.63	0.1	i
COC(=O)C1=C(c2ccc(OC(F)(F)F)cc2)C[C@@H]2CC[C@H]1N2C(=O)NCCNC(C)=O	-2.0	-9	4	-3	-7.1	/	0.9	/	-0.1	i
O=c1[nH]c(=S)n(-c2ccccc2F)c(O)c1C=NCCN1CCNCC1	1.2	-5	10	17	0.9	-11	-0.1	0.64	6.7	i
O=C(c1ccccc1F)N1C[C@H]2C[C@@H](C1)c1cccc(=O)n1C2	-0.9	1	/	/	/	1	1.5	0.71	2.9	i
O=c1c2ccccc2[nH]c(=S)n1-c1ccc2c(c1)OCO2	/	14	/	/	/	-8	0.2	0.68	5.8	/
O=C(Cc1ccccc1)Oc1ccc(N2C(=O)CCC2=O)cc1	/	-4	/	/	/	-3	0.5	0.72	3.4	/
Cc1cccc(N2C(=O)NC(=O)/C(=C/c3ccc([N+](=O)[O-])o3)C2=O)c1	/	-4	/	/	/	/	-0.4	0.56	21*	/
Cc1cc(N2C(=O)C3CCCN3C2c2cccc(Cl)c2)no1 (stereo unspecified)	/	-3	/	/	/	7	-0.4	0.7	-2.0	/
CCN(CC)CCCn1c(=S)[nH]c2cc(Cl)ccc2c1=O	0.8	0	6	-4	1.7	-22	-0.4	0.72	4.8	i
CN(C)CCN=Cc1c(O)n(-c2cccc(C(F)(F)F)c2)c(=O)[nH]c1=O	4.8	-2	3	1	-6.5	-3	0.1	0.72	1.8	i
CP(=O)(O)CCCN	/	-7	/	/	/	-7	0.4	0.62	0.2	/
O=P(Nc1c(Cl)cccc1Cl)(c1ccccc1)c1nc2c(s1)CCCC2 (stereo unspecified)	/	-18	/	/	/	-6	-0.5	0.66	-1.9	/
CN(C)c1cccc2c(C#N)ccc(N(C)C)c12	1.4	6	-4	2	9.5	14	-0.7	0.67	0.1	/
CC(C)(O)C(=O)Nc1ccc([N+](=O)[O-])c(C(F)(F)F)c1	/	-6	3	5	-0.3	/	0.3	0.64	3.6	i
O=C(c1ccc(Cl)cc1)C1CCCN(C2CCSCC2)C1 (stereo unspecified)	-11	-4	8	1	8.5	25	0.0	0.64	2.8	i
COc1ccc(C(=O)c2nc3ccccc3n2C(C)C)cc1OC	8.5	-24	-1	2	-1.1	-10	-1.0	0.67	5.4	i
Cc1ccc(NC(=O)CCSc2ccccc2)c(C)c1	/	2	/	/	/	-1	0.0	0.73	1.3	/
COc1ccc(OCCSc2nnnn2C2CCCCC2)cc1	/	-1	/	/	/	/	0.1	0.74	-1.0	/
Cc1ccc2[nH]c(C)c(CCNCc3ccco3)c2c1	19	-6	9	10	5.4	3	0.2	0.67	-2.6	i
CCCCc1nc(N2CCNCC2)c(C#N)c2c1CSC(C)(C)C2	/	4	/	/	/	37	0.2	0.67	-15	/
CSc1ncc(/C=C2/C(=O)NC(=O)N(c3ccc(C)cc3)C2=O)cn1	-3.2	-2	9	15	-1.3	-2	0.8	0.67	1.7	i
CCN(CC)c1nc2c(C)cccn2c(=O)c1C=C1C(=O)NC(=O)NC1=O	-3.8	-4	-21	-22	-5.4	3	-0.1	0.68	-2.2	i
CCCCn1c(O)c(C(C)=Nc2ccc(C(=O)O)cc2)c(=O)[nH]c1=O	/	2	/	/	/	-2	0.1	0.71	5.7	/
CN(C)c1ccc([P+](=O)c2ccc(N(C)C)cc2)cc1	3.1	-4	-1	-5	1.9	46	0.5	0.69	2.2	i
CC(=O)c1ccc(OC(C)C)c(Cc2c(O)[nH]c(=S)[nH]c2=O)c1	-14	2	12	7	-1.3	-10	-0.4	0.67	1.7	/
Cc1ccc(/C=C2/C(=O)NC(=O)N(C)C2=O)cc1	-2.4	-5	/	/	/	-5	0.9	0.71	-3.2	i
Cc1ccc(CN2CCCC(C(=O)c3sccc3C)C2)o1 (stereo unspecified)	1.5	-3	0	10	0.8	66*	0.8	0.71	3.1	i
COCCO[C@H]1CCC2C3CC=C4C[C@@H](O)CC[C@]4(C)C3CC[C@@]21C (stereo partly specified)	3.5	-2	-5	-10	4.5	/	?	0.73	3.3	i
Cc1ccc2cccc(OC(=O)N(C)c3ccccc3)c2n1	/	0	/	/	/	11	1.5	0.77	-0.3	/
CN1CCN(c2ccc3nccnc3c2)CC1	0.3	-12	12	-1	-1.3	18	0.5	0.71	-0.2	i
C/C(=N\NC(=O)c1ccccc1O)c1c(O)n(C2CCCCC2)c(=O)[nH]c1=O	-0.3	-4	-18*	-11*	4.5*	-26	0.1	0.68	-4.7	i
CC(=NCc1ccc2c(c1)OCO2)c1c(O)n(-c2ccccc2)c(=O)[nH]c1=O	-2.3	/	12	25	0.7	13	0.8	0.71	2.7	/
CCOC(=O)C1CCN(/C=C2/C(=O)NC(=O)N(c3ccc(OCC)cc3)C2=O)CC1	-16	-10	10	3	-0.4	/	0.0	0.68	2.4	i
CN1C(=O)NC(=O)C(N=Nc2ccc(Cl)cc2)C1=O (stereo unspecified)	-0.9	/	-2	-1	-2.1	/	/	0.65	11	i
COc1cc(CNCCc2c[nH]c3ccccc23)cc(OC)c1	11	2	1	-4	2.9	20	0.2	0.67	2.0	i
O=C(CN1CC=C(c2ccccc2)CC1)NC(=O)NCc1ccccc1	-0.3	-4	6	-1	-0.2	15	?	0.72	-1.8	i
CC(=O)OCC(=O)[C@H]1CC[C@H]2[C@@H]3CC[C@H]4C[C@H](O)CC[C@]4(C)[C@H]3C(=O)C[C@]12C	-3.0	7	/	/	/	/	-0.7	/	12	i
Further records
SMILES	MLL AF4-AF9 inh	Beta cell apopt	rRNA inh HTS	rRNA inh HTS OD600	rRNA inh HTS RFP	T cruzi inh	A1 inh	E coli growth	UCH37 inh	FGF22 binding
O=P(OCC(F)(F)C(F)F)(N1CCCCC1)N1CCCCC1	/	-2	/	/	/	-8	0.3	0.64	0.6	/
Nc1ncc([N+](=O)[O-])s1	/	-2	2	-4	-1.4	/	-0.3	/	/	i
O=S1(=O)CC2(N3CCOCC3)CCCCC21 (stereo unspecified)	4.0	-6	11	14	-5.0	-7	0.3	0.67	-0.4	i
O=C(Nc1cccc(Cl)c1)N1C[C@H]2C[C@@H](C1)c1cccc(=O)n1C2	-1.3	-1	-1	3	-8.1	-22	-0.3	0.78	1.7	i
CCC(C)(C)c1ccc(O)cc1	/	-3	1	3	-1.0	/	0.0	0.65	-0.5	i
O=C1N[C@H](Cc2ccccc2)C(=O)N2[C@@H]3[C@H](C[C@@H]12)c1ccccc1N3OOSc1ccccc1	/	/	/	/	/	23	0.7	0.72	2.3	/
Cn1cc(C(=O)OCC(=O)NC2(C#N)CCCCC2)c2ccccc21	4.1	/	2	6	3.9	/	/	0.64	0.0	i
Cc1oc(-c2cccs2)nc1CSCC(=O)N1CCC2(CC1)OCCO2	/	-2	/	/	/	-4	-0.7	0.66	-25	/
Cc1ncc(CN2CCCC(C(=O)c3sccc3C)C2)s1 (stereo unspecified)	0.6	1	9	8	-0.5	19	0.6	0.66	0.6	i
C#CCNc1ccncc1S(=O)(=O)NC(=O)NC(C)C	/	0	/	/	/	-1	0.6	0.78	3.6	/
Cc1cc(OCC(=O)N[C@H](C(=O)O)c2ccccc2)c2c3c(c(=O)oc2c1)CCC3	-2.4	-3	/	/	/	4	-0.5	0.72	-124	i
Cc1ccccc1C(=O)N1CC1C (stereo unspecified)	-2.9	/	/	/	/	/	/	0.67	1.9	i
COc1ccccc1CN1CCCC(C(=O)c2ccccc2SC)C1 (stereo unspecified)	5.3	1	-2	-3	4.4	60*	1.1	0.7	1.7	i
CCCOC(=O)c1c(N)n(Cc2cccs2)c2nc3ccccc3nc12	/	-12	/	/	/	30	0.6	0.68	-322	/
Cc1ccc(C2NC(=S)NC(c3ccc(C)cc3)C23C(=O)NC(=O)NC3=O)cc1 (stereo unspecified)	/	-5	/	/	/	-4	-0.1	0.75	2.5	/
COc1cccc(-c2nc3ccc(N4CCN(C)CC4)cc3[nH]2)c1	4.8	12	10	21	3.0	31	-7.8	0.67	i	i
